Mtb growth: Mycobacterium tuberculosis H37Rv growth inhibition, cell based, confirmatory dose response (AID 1949) | most inactive calls were filed without a number and no value below 0 was filed | inhibition, % at 10 µg/mL; hits with a dose series show IC50 in µg/mL | 1.6% of 100,000 active;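 active = confirmed in a dose series; inconclusive = about 50% or more but not retested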;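 note: bacteria grown 7 days with compound before Alamar blue readout; 0% = untreated bacteria and 100% = reference antibiotic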
The depositor's hits bear a star; i = inactive; ? = inconclusive. Some of the compounds tested. The share of hits here may be higher or lower than overall.

| SMILES | Mtb growth |
| --- | --- |
| CC(=O)c1ccccc1NC(=O)C1C2C=CC(O2)C1C(=O)O (stereo not given) | i |
| Cc1nc(Nc2nc(-c3ccccc3)cc(=O)[nH]2)nc2ccccc12 | 1% |
| CN(C)S(=O)(=O)n1c(Cc2ccccc2)nc2ccccc21 | i |
| CC(Nc1oc(/C=C/c2ccccc2)nc1C#N)c1ccccc1 (stereo not given) | i |
| CC(=O)c1cccc(NC(=O)CSc2nnnn2C)c1 | i |
| COc1ccc(OC(=O)COc2ccc3ccccc3c2)cc1 | 1% |
| Cc1c(NC(=O)c2cccc(Br)c2)ccc([N+](=O)[O-])c1C | i |
| Cc1cc(OCC(O)CN2CCOCC2)ccc1C(C)C (stereo not given) | 8% |
| CC(NS(=O)(=O)c1ccccc1)C1C2CC3CC(C2)CC1C3 (stereo not given) | i |
| COc1ccc(C(=O)Nc2ccc(O)c(C)c2C)cc1 | i |
| O=C(Nc1ccc2oc(-c3ccc(F)cc3)nc2c1)c1cc2ccccc2o1 | 5% |
| COc1ccc(CCNC(=O)c2cc3ccccc3o2)cc1 | 1% |
| CCOC(=O)c1c(NC(=O)COc2ccc(OC)cc2)sc(C(=O)Nc2ccccc2F)c1C | i |
| CC(c1ccccc1)n1c(O)c2ccc(C(=O)N=NC(=O)c3ccccc3)cc2c1O (stereo not given) | i |
| O=C(CN(Cc1ccc(F)cc1)S(=O)(=O)c1ccc(Cl)cc1)NC1CCCCC1 | i |
| CC(=O)Nc1ccc(S(=O)(=O)NNC(=S)Nc2ccc(F)cc2F)cc1 | i |
| COC(=O)C1=C(C)NC(=S)NC1c1cn(-c2ccccc2)nc1-c1cccs1 (stereo not given) | 6% |
| Cc1noc(C)c1C(=O)Nc1sc(C)c(-c2ccccc2)c1C#N | i |
| Cc1ccc(OCC(=O)Nc2ccccc2C(F)(F)F)c(C(C)(C)C)c1 | i |
| COc1ccc(NC(=O)NNC(=O)c2ccc(Br)s2)cc1OC | i |
| CCCCOC(=O)Nc1nnc(CC(=O)NCc2ccccc2)s1 | i |
| CC(=O)c1c(N2CCN(C(=O)C3CCCO3)CC2)nc(=S)n(-c2ccccc2)c1C (stereo not given) | i |
| Cc1c(Cl)c([N+](=O)[O-])nn1CC(=O)NCc1ccco1 | i |
| COc1cc(-c2n[nH]c(=S)n2C2CCCCC2)cc(OC)c1OC | i |
| CN(CCC#N)CC(=O)Nc1cc(C(F)(F)F)cc(C(F)(F)F)c1 | i |
| COc1ccc(C2=NOC(CNC(=S)NCc3ccco3)C2)cc1 (stereo not given) | 5% |
| CCCn1c(=N)c(C(=O)OC)cc2c(=O)n3cccc(C)c3nc21 | i |
| CC(NC(=S)NCc1ccco1)C1CCCO1 (stereo not given) | i |
| CCc1ccccc1NC(=O)C1CCN(C(=O)c2ccc(OC)cc2)CC1 | 0% |
| O=C(CSCc1c(F)cccc1Cl)Nc1ccccc1 | i |

Next entries:
| SMILES | Mtb growth |
| --- | --- |
| CN(C)c1ccc(/C=C/c2nc3ccccc3c(=O)n2CCO)cc1 | 4% |
| CCOC(=O)C(=O)Nc1ccc([N+](=O)[O-])cc1C | i |
| CC(C)(C)C(=O)CSc1nnc(-c2ccco2)o1 | i |
| COC(=O)c1ccc(NC(=O)c2ccc(N(Cc3ccccc3Cl)S(C)(=O)=O)cc2)cc1 | i |
| COc1ccc(-c2noc(Cc3cccs3)n2)cc1 | i |
| CCC(C)NC(=O)C1(c2ccc(OC)cc2)CCOCC1 (stereo not given) | i |
| CC(C)CC(=O)NC(c1ccccc1Cl)c1c(O)ccc2ccccc12 (stereo not given) | i |
| COc1ccccc1OCC(=O)Nc1ccc2c(c1)C(=O)N(CC1CCCO1)C2=O (stereo not given) | i |
| CC(C)(C)NC(=O)c1ccc(COc2cccc3ccccc23)cc1 | 38% |
| Cn1nnc2cc(C(=O)N3CCC(c4ccccc4)C3)ccc21 (stereo not given) | i |
| COc1cccc(Cn2c(-c3cncs3)nc3ccccc32)c1 | 16% |
| Cc1c(OCCc2ccccc2)ccc2c3c(c(=O)oc12)CCC3 | i |
| CCN1CCCC(OC(=O)NC2CCCCC2)C1 (stereo not given) | i |
| c1ccc(C(Sc2nnc(-c3ccco3)o2)c2ccccc2)cc1 | i |
| O=[N+]([O-])c1ccn(Cc2cccc3ccccc23)n1 | 0% |
| COc1cc(C(=O)Nc2ccc3nn(-c4ccccc4)nc3c2)cc(OC)c1OC | 0% |
| CCCc1cc(=O)oc2c(C)c(OCc3cc([N+](=O)[O-])ccc3OC)ccc12 | i |
| Cc1ccc(N(C(C)C(=O)Nc2ccccc2Br)S(C)(=O)=O)cc1 (stereo not given) | i |
| Nc1nncn1C(=O)c1cc(Br)ccc1Cl | 0% |
| COc1ccc(NC(=S)Nc2ccc3c(c2)CCC3)cc1OC | i |
| COC(=O)c1ccc(Nc2nnc(-c3ccc(O)cc3)c3ccccc23)cc1 | 4% |
| CC1=C(C(=O)OCc2ccccc2)C(c2ccccc2O)NC(=O)N1 (stereo not given) | i |
| Cn1c(COc2ccccc2Cl)nnc1SCC(=O)Nc1cccc(Cl)c1 | 11% |
| CCOC(=O)c1ccc(NC(=S)NNC(=O)c2oc3ccccc3c2C)cc1 | i |
| Cc1cccc(NC(=O)c2ccc3c(c2)C(=O)N(Cc2cccnc2)C3=O)c1C | i |
| Cc1ccc2c(c1)C(O)(CC(=O)c1ccccn1)C(=O)N2 (stereo not given) | i |
| CCCCNS(=O)(=O)c1ccc(NC(=O)c2ccc(C)c(C)c2)cc1 | i |
| COC(=O)c1ccc(-n2nnnc2SCc2ccccc2C)cc1 | i |
| CC1=Nc2ccccc2N=C(NC(=O)c2ccccc2)C1c1ccccc1 (stereo not given) | 0% |
| O=C(NCc1ccc2c(c1)OCO2)c1ccc(C(=O)NCc2ccc3c(c2)OCO3)nc1 | 6% |

4 entries from above, set out differently.
> COC(=O)c1ccc(Nc2nnc(-c3ccc(O)cc3)c3ccccc23)cc1
  Mtb growth: 4%

> CC1=C(C(=O)OCc2ccccc2)C(c2ccccc2O)NC(=O)N1 (stereo not given)
  Mtb growth: i

> Cn1c(COc2ccccc2Cl)nnc1SCC(=O)Nc1cccc(Cl)c1
  Mtb growth: 11%

> CCOC(=O)c1ccc(NC(=S)NNC(=O)c2oc3ccccc3c2C)cc1
  Mtb growth: i

Going on with the list:
SMILES | Mtb growth
CCN(CC)C(=O)c1n[nH]c(=O)c2ccccc12 | i
COc1cc(OC)c(C(=O)Nc2cccc(I)c2)cc1OC | i
CC(=O)Nc1ccc(OC(=O)c2ccc(Oc3ccc([N+](=O)[O-])cc3)cc2)cc1 | i
O=[N+]([O-])c1cccc(-c2noc(-c3ccco3)n2)c1 | i
CCc1nnc(NC(=O)c2ccccc2NC(=O)Cc2ccccc2)s1 | i
CC(C)c1ccc(S(=O)(=O)Nc2ccc(O)c(Br)c2)cc1 | 5%
O=C(CSCc1ccccc1)Nc1ccc(F)cc1F | ?
COc1cc(-n2c(-c3ccccc3)n[nH]c2=S)c(OC)cc1Cl | i
CCc1nnc(NC(=O)c2ccc(COc3ccccc3)o2)s1 | i
O=C(c1ccccc1Br)N1CCN(c2ccc([N+](=O)[O-])c(N3CCCC3)c2)CC1 | i
O=C(Nc1ccc(-c2noc(-c3cccs3)n2)cc1)c1cccc(Br)c1 | i
COC(=O)c1sccc1NC(=O)c1csc2c1CCCC2 | 33%
CCOC(=O)N1CCc2c(sc(NC(=O)CNCc3ccco3)c2C(=O)Nc2ccc(Br)cc2)C1 | 38%
CC(C)CNC(=O)c1cccc(NC(=O)C2CCCCC2)c1 | 0%
COc1ccc(S(=O)(=O)N2CCCC2)c(C)c1C | i

New compounds follow
SMILES | Mtb growth
O=S(=O)(NCCC1=CCCCC1)c1cc(Cl)ccc1Cl | i
O=C(Cn1nc(-c2ccc(Cl)cc2)c2ccccc2c1=O)N1CCCCC1 | i
CC(C)CN1C(=O)c2ccc(NC(=O)c3cccs3)cc2C1=O | 1%
COc1ccc(CN2CCN(C(=O)c3ccccc3F)CC2)cc1Br | i
CCc1ccc(NS(=O)(=O)c2ccc(SC)cc2)cc1 | 7%
CCOC(=O)c1c(C)oc2cc(Br)c(OC(=O)c3ccccc3OC)cc12 | i
COc1c(C)cccc1C(=O)Nc1ccc(N2CCN(C(=O)c3cccs3)CC2)cc1 | 21%
CCN(CC)c1ccc(/C=C(\NC(=O)c2ccccc2Cl)C(=O)NN)cc1 | i
Cc1ccc(OCC(=O)Nc2ccc(C(=O)O)cc2NC(=O)COc2ccc(C)c(C)c2)cc1C | i
NC(=O)C1(N2CCCCC2)CCN(C(=S)Nc2ccc(Oc3ccccc3)cc2)CC1 | i
O=C(O)c1cn[nH]c1-c1ccc(Br)cc1 | i
COc1ccc(CN2CCN(C(=O)c3cccc(OC)c3OC)CC2)cc1OCc1ccccc1 | i
CCc1ccccc1NS(=O)(=O)c1ccc(OC)c(C)c1 | i
Cc1cc(C)c(OCCN(C)Cc2ccccc2)c(Br)c1 | i
CCCCC(=O)Nc1cc(Cl)ccc1OC | 8%

Exported field by field: 4 of the compounds above
mol: CCc1ccc(NS(=O)(=O)c2ccc(SC)cc2)cc1
  Mtb growth: 7%
mol: NC(=O)C1(N2CCCCC2)CCN(C(=S)Nc2ccc(Oc3ccccc3)cc2)CC1
  Mtb growth: i
mol: CCCCC(=O)Nc1cc(Cl)ccc1OC
  Mtb growth: 8%
mol: O=C(Cn1nc(-c2ccc(Cl)cc2)c2ccccc2c1=O)N1CCCCC1
  Mtb growth: i

Going on with the list:
SMILES | Mtb growth
CC1CCN(C(=O)CCCN2C(=O)c3cccc4cccc(c34)C2=O)CC1 | i
CCCN1CCC(NC(=S)Nc2ccc(Br)cc2Cl)CC1 | i
S=C(Nc1ccc(Cl)cc1Cl)NC1CCCC1 | i
COC(=O)C(CO)NC(=O)c1ccccc1 (stereo not given) | i
COc1ccc(S(=O)(=O)N(CC(=O)Nc2cc([N+](=O)[O-])ccc2C)Cc2ccccc2)cc1 | i
CCCCNC(=O)c1ccccc1NC(=O)c1cccc(F)c1 | 4%
COc1cc(OC)c(NC(=O)Cc2ccc(Cl)cc2)cc1Cl | i
CSc1ccc(Cl)c(C(=O)Nc2ccccc2C(F)(F)F)c1 | 37%
CCOCC(=O)N(CC)C1CCCCC1 | i
O=C(NCCc1ccccc1)C(=O)NCCc1c[nH]c2ccccc12 | i
S=c1[nH]nc(COc2ccccc2)o1 | i
CCN(CC)C(=O)Nc1cnc2ccccc2c1 | i
CCCc1c(C)c2ccc(OC(=O)C(CCC)NS(=O)(=O)c3ccc(C)cc3)cc2oc1=O (stereo not given) | i
Cc1cc(C(=O)Nc2ccc(OCc3ccccc3)cc2)ccc1[N+](=O)[O-] | i
COCCCNCCOc1ccc(C(C)(C)c2ccccc2)cc1 | 12%

3 of these compounds in a different format.
CSc1ccc(Cl)c(C(=O)Nc2ccccc2C(F)(F)F)c1
  Mtb growth: 37%
CCOCC(=O)N(CC)C1CCCCC1
  Mtb growth: i
O=C(NCCc1ccccc1)C(=O)NCCc1c[nH]c2ccccc12
  Mtb growth: i

Remaining list, next part.
SMILES | Mtb growth
O=C(NCc1ccc(Cl)cc1)Nc1ccc([N+](=O)[O-])cc1 | i
COc1ccc(N2CCN(C(=O)C34CC5CC(C)(CC(C)(C5)C3)C4)CC2)cc1 | 2%
COC(=O)c1ccc(NC(=O)CN(C)S(=O)(=O)c2ccc3ccccc3c2)cc1 | i
CCCS(=O)(=O)N1CCN(C2CCN(Cc3ccccc3)CC2)CC1 | 1%
C=C(C)c1cccc(C(C)(C)NC(=O)NCCC)c1 | 8%
COC(=O)c1c(C)n(-c2ccc(C)cc2)c2ccc(O)cc12 | i
CN(C(=O)c1ccccc1-c1ccccc1C(=O)O)c1ccccc1 | i
CC(C)(CO)NC(=O)NC12CC3CC(CC(C3)C1)C2 | i
COCCNS(=O)(=O)c1ccc(Oc2ccccc2)cc1 | i
COC(=O)c1c(NC(=O)C2CCCCC2)sc(C)c1C | 0%
O=C(CCN1CCCCC1)NCC1OCCc2ccccc21 (stereo not given) | i
O=C(CSc1nc2ccccc2[nH]1)Nc1ccc(S(=O)(=O)Nc2ccccn2)cc1 | 3%
CCc1cccc(Oc2ccc(C(F)(F)F)cn2)c1 | i
C=CCn1c(SCC(=O)Nc2c(F)cc(F)cc2Br)nnc1-c1cc2cccc(OC)c2o1 | i
O=C(CC12CC3CC(CC(C3)C1)C2)NC(=S)Nc1nc(-c2cccc([N+](=O)[O-])c2)cs1 | i

(more compounds)
SMILES | Mtb growth
O=C(Nc1ccccc1F)c1ccc(CSc2ccccn2)cc1 | i
COC(=O)c1c(O)ccc(-c2ccc(OC)cc2)c1C(=O)OC | i
CN(C)C(=O)c1ccc2nc(-c3ccccc3)c(-c3ccccc3)nc2c1 | 2%
CCCCC(=O)Nc1cccc(NC(=S)NC(=O)c2ccccc2C)c1 | i
CC(=O)c1ccc(OC(=O)COc2ccccc2)cc1 | i
Cc1cc(C)cc(NC(=O)COc2ccc(S(=O)(=O)NC(C)C)cc2)c1 | i
Cc1ccc(CN2CCN(C(=O)CCN3C(=O)c4ccccc4C3=O)CC2)cc1 | i
COc1ccc(Cl)cc1NC(=O)C(=O)O | i
Cc1cccc(NS(=O)(=O)c2cc(C(=O)NCc3ccco3)ccc2C)c1 | i
O=c1cc(O)c2sc3nc(Cc4ccccc4)cc(C(F)(F)F)c3c2[nH]1 | i
Fc1ccc(COc2cccc3cccnc23)cc1 | 2%
O=C(CCC1CCCCC1)NC1CCCC1 | i
O=c1c(O)c(-c2cccs2)oc2ccc(Cl)cc12 | ?
COc1ccc(C(C)NC(=O)c2ccc(F)cc2)cc1 (stereo not given) | i
COc1ccc(Cc2nnc(NC(=O)c3ccccc3Oc3ccccc3)s2)cc1OC | 5%

More entries follow.
SMILES | Mtb growth
COc1ccc(C(=O)Nc2ccccc2C(=O)Nc2nc3ccccc3s2)cc1 | i
CCCN1CCN(C(=S)Nc2ccc([N+](=O)[O-])cc2)CC1 | i
CCc1ccc(NC(=O)CN(c2ccc(OC)c(OC)c2)S(C)(=O)=O)cc1 | i
CC(C)c1ccc(NC2C=CS(=O)(=O)C2)cc1 (stereo not given) | i
CCCCNC(=O)c1ccccc1NC(=O)c1cc(Cl)ccc1OC | i
COc1cccc(-c2nnc(NC(=O)C3CCCCC3)s2)c1 | i

Screening results (PubChem)
